Screens deposited in PubChem by several laboratories.
INS promoter inh: inhibitors of insulin promoter-driven GFP, primary screen, imaging, TRM-6 cells (human fetal islet line), eGFP reporter, cell count | inhibition, % at 2 µM | 130,000 compounds, 0.9% hits | reporter expression induced with tamoxifen | AID 1273, 2008;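 active = inhibition above the mean plus 3 SD, with well images judged a real hit on visual review, cut at about 60% in these data, passing the limit was not always enough; inconclusive = inhibition over the cutoff but images rejected on review; inactive = inhibition not above the cutoff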
GALR2 ag: GALR2 receptor agonists, primary screen, cell-based; Galanin receptor type 2 (Homo sapiens), O43603; GALR2-expressing cells, agonist activation read-out; activation, %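 (tested at 5 µM)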; 140,000 compounds, 0.48% hits;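 active = above mean plus 3 SD of all compounds, about 5% in these data, not always enough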;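 note: 0% = vehicle buffer wells and 100% = reference agonist at full effect; tested in CHO reporter cells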
PKD1 kinase inh: inhibitors of human PKD1 kinase, biochemical, fluorescence polarization; PKD1 kinase fluorescence polarization assay; inhibition, %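 (about 10 µM by stock and volumes)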; 200,000 compounds, 0.056% hits; AID 797, 2007;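 active = inhibition of 50% or more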;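 note: controls were vehicle for no effect and a reference inhibitor for full effect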
Target sequence (Q15139 whole entry, looked up): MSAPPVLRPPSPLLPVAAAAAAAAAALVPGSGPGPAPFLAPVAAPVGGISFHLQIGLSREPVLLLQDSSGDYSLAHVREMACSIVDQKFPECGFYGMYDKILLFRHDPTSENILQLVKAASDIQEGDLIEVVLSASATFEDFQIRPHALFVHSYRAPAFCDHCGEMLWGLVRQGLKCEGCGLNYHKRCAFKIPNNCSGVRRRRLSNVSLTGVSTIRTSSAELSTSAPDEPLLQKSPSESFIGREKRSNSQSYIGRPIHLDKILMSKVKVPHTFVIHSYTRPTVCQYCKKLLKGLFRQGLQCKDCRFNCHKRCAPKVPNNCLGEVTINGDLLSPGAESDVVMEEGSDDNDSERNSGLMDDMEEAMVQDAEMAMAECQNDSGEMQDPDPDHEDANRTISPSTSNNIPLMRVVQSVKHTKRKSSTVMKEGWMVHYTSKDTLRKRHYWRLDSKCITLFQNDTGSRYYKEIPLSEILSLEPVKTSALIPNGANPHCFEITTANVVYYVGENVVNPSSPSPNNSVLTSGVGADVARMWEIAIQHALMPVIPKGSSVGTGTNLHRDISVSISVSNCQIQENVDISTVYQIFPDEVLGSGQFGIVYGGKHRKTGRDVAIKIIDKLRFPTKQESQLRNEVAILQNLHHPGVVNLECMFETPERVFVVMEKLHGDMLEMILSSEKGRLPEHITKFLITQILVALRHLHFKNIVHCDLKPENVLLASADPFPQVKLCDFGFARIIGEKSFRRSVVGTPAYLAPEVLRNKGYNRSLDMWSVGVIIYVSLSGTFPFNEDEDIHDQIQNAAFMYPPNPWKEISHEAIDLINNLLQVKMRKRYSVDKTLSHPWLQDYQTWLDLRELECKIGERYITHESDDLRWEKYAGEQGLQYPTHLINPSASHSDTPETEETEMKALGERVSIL
HSV replic up: enhancers of HSV replication in host cells, fold increase, host cell viability. HSV replication augmentation in cells. maximum fold increase. 220,000 compounds, 0.005% hits. AID 1956, 2009;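 active = peak rise of 1.5-fold or more in the series; inconclusive = self-fluorescent or not available for retest; tested in PC3 cells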;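 note: first round at 10 µM; read as green reporter fluorescence; hits show the peak of a series up to 25 µM; 1 = signal of infected wells without compound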
RGS16-Gao: modulators of RGS16 binding to Galphao, primary screen, biochemical, human proteins, multiplexed bead flow cytometry; Regulator of G-protein signaling 16 (Homo sapiens) + Guanine nucleotide-binding protein …; bead-based flow cytometry RGS16-Galphao binding, fluorescence; actives lie on both sides; binding response (% of control), % at 10 µM; 220,000 compounds, 0.38% hits; AID 1441, 2008;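 active = below 25% or above 175%, edge rows of some plates excepted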;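 note: Galphao activated by GDP with aluminum fluoride before binding; 100% = wells without compound and 0% = beads without RGS; some results beyond the cut were filed as inactive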
INS promoter inh cell count: also measured in INS promoter inh; calls as there; normalized cell count, %; measured here: cell count, toxicity; reference of the scale not given here;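 cells exposed to compound for 48 h; stained nuclei by imaging scaled within each plate; lower means fewer cells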
HSV replic up primary fold: further read-out of HSV replic up, marked with its call; fold increase; compound at 10 µM; measured here: primary screen fold increase 10 uM; tested in PC3 cells;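 GFP signal in the first replicate; 1 = infected wells without compound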
* hit, by the source's call; i = inactive; ? = inconclusive; / = no result given.

SMILES | INS promoter inh | INS promoter inh cell count | GALR2 ag | PKD1 kinase inh | HSV replic up | HSV replic up primary fold | RGS16-Gao
c1ccc2sc(NC3=NCN(CC4CCCO4)CN3)nc2c1 (stereo not given) | -73 | 46 | / | -7 | i | 0.97 | 114
CCc1cccc(C)c1NC(=O)CSc1ncn[nH]1 | -24 | 99 | -1.1 | 2 | i | 1.1 | 101
O=C(Nc1cc2c3c(c1)C1CCCC1CN3CC1CCCC21)c1ccccc1 (stereo not given) | / | / | -2.1 | 1 | i | 0.82 | 94
O=C(Nc1ccccc1N1CCCCC1)c1ccc(N2C(=O)c3ccccc3C2=O)cc1 | 33 | 162 | -1.3 | 6 | i | 0.89 | 106
CC1CCCCN1CCNC(=O)c1cc2c(-c3ccccc3F)nn(C)c2s1 (stereo not given) | / | / | -3.3 | -11 | i | 0.52 | 107
CCC(C)(C(=O)NC1CCCCC1)N(C(=O)C1CCC(=O)N1)c1ccc(C)cc1 (stereo not given) | / | / | 0.0 | -8 | i | 1 | 110
CCOC(=O)CSc1cc(-c2ccccc2)nc2ncnn12 | / | / | / | / | i | 0.78 | 80
CCc1ccc(C(=O)COC(=O)c2cc([N+](=O)[O-])ccc2NCCO)cc1 | -17 | 120 | 0.7 | -8 | i | 0.91 | 58
CCOC(=O)c1c(C)[nH]c(C(=O)COC(=O)CNC(=O)C2CCCCC2)c1C | / | / | -1.9 | 7 | i | 0.9 | 99
CCOC(=O)N1CCN(C(=O)C2CCCN(S(=O)(=O)c3cc(C)ccc3OC)C2)CC1 (stereo not given) | 29 | 136 | -2.7 | -9 | i | 0.84 | 78
Cc1cccc(C(=O)N(Cc2nc3ccccc3c(=O)[nH]2)C2CCCC2)c1 | / | / | / | -10 | i | 0.97 | 108
CC(=O)[C@@]1(O)CC[C@H]2[C@@H]3C[C@H](C)C4=CC(=O)CC[C@]4(C)[C@H]3CC[C@@]21C | -161 | 85 | 0.5 | -10 | i | 0.9 | /
CCCNC(=O)/C(=C/c1cn(S(=O)(=O)N(C)C)c2ccccc12)NC(=O)c1ccc(OC)cc1 | / | / | / | -2 | i | 1 | 91
CCCC(=O)OC/C(O)=C(\C#N)c1nc2ccccc2[nH]1 | 0 | 82 | / | 5 | i | 0.88 | 104
Cn1cc(C(=O)N/N=C/c2ccc([N+](=O)[O-])cc2)c2ccccc21 | / | / | / | / | i | 0.85 | 96
CC(C)CCNC(=O)CCCOc1cc(=O)n(C)c2ccccc12 | -41 | 61 | -0.8 | -7 | / | / | 105
CN1CC(=O)N(CC(=O)NCc2ccc(F)cc2)c2ccccc2C1=O | / | / | -2.1 | -15 | i | 1 | 99
CCN(CCNC(=O)C1CC(=O)N(CCc2ccccc2)C1)c1ccccc1 (stereo not given) | 15 | 110 | -3.1 | -2 | i | 1 | 105
Cc1ccccc1NC(=O)NC1(C(=O)N2CCCC2)CCCCC1 | / | / | / | -2 | i | 1 | 102
CC(=O)N1CCC(=NNc2ccc(S(N)(=O)=O)cc2[N+](=O)[O-])CC1 | / | / | / | / | i | 1.3 | 97
CCC(C)(C)c1nnc(NC(=O)c2ccc([N+](=O)[O-])cc2)s1 | -24 | 116 | -1.0 | 1 | i | 0.97 | 103
COc1ccc(CCNC(=O)COC(=O)/C=C/c2cccs2)cc1OC | / | / | / | -9 | i | 0.88 | 101
COCCNC(=O)C(OC(=O)c1cccs1)c1ccc(F)cc1 (stereo not given) | / | / | / | -4 | i | 1 | 104
COc1cccc(C(=O)Nc2ccccc2C(=O)N2CCCC2)c1 | -14 | 189 | -1.3 | -7 | i | 0.96 | 93
O=C(COC(=O)c1ccc(Oc2ccccc2)cc1)Nc1nnc(-c2ccccc2)o1 | -53 | 98 | -0.8 | 1 | i | 0.93 | 100
New compounds follow.
SMILES | INS promoter inh | INS promoter inh cell count | GALR2 ag | PKD1 kinase inh | HSV replic up | HSV replic up primary fold | RGS16-Gao
CC(=O)c1c(C)[nH]c(C(=O)N(C)C(c2ccccc2)c2ccccc2)c1C | 27 | 125 | / | -3 | i | 0.88 | 112
O=C1OCCC1Sc1nnc(-c2cccs2)n1Cc1ccccc1 (stereo not given) | / | / | -0.3 | -7 | i | 0.9 | 102
COc1cccc(NC(=O)c2ccco2)c1 | -68 | 90 | -0.6 | 2 | i | 0.63 | 89
Nc1c(-c2cccc(Cl)c2)cnn1-c1cccc([N+](=O)[O-])c1 | 25 | 99 | -1.2 | -5 | i | 0.8 | 98
CCOC(=O)c1ccc2ncc(C(=O)OCC)c(Nc3ccc(N4CCOCC4)cc3)c2c1 | 33 | 131 | -0.6 | 2 | i | 0.84 | 101
CN1CCCC(OC(=O)c2cc(Br)ccc2Cl)C1 (stereo not given) | / | / | -0.9 | -2 | i | 1 | 97
Cc1nn(-c2ccccc2)c(Cl)c1/C=C1/C(=N)N2N=C(C(C)C)SC2=NC1=O | 22 | 104 | -0.8 | -11 | i | 0.99 | 95
CCOC(=O)C1CCN(C(=O)CSCc2nc(-c3ccc(OCC)cc3)oc2C)CC1 | -174 | 37 | -1.3 | -5 | i | 0.96 | 111
O=C1CC(N2CCC(O)(c3ccc(Br)cc3)CC2)C(=O)N1c1ccc(Cl)cc1 (stereo not given) | -14 | 101 | -1.1 | -8 | i | 0.99 | 89
CC(C)(C)NC(=O)COC(=O)c1ccc(F)cc1Cl | / | / | / | -2 | i | 1.1 | 98
CCOC(=O)C1CCN(S(=O)(=O)c2ccc(OCC)cc2)CC1 | 48 | 120 | -1.7 | -2 | i | 0.96 | 98
CC1=CC(C)(C)n2c(O)c(N=NC(N)=S)c3cccc1c32 | / | / | -0.4 | 12 | i | 1.1 | 106
Cc1ccc(Cl)cc1NC(=O)COC(=O)C1CC1 | -136 | 40 | / | -2 | i | 0.89 | 57
Cc1ccc(NC(=O)c2sc(N)nc2-c2ccccc2)cc1C | / | / | / | -3 | i | 0.9 | 97
C/C(=N/NC(=O)c1ccco1)c1ccc(NC(=O)c2ccc(F)cc2)cc1 | / | / | -0.8 | 9 | i | 0.94 | 100
CCCCCCc1cc2cc(C(=O)Nc3ccccc3OC)c(=O)oc2cc1O | 12 | 98 | -0.5 | -3 | ? | / | 100
COCCNC(=O)C1CC(=O)N(c2ccc(F)c(Cl)c2)C1 (stereo not given) | / | / | -3.0 | 10 | i | 0.71 | /
CCC12CC3CC(C1)CC(C(=O)Nc1nn[nH]n1)(C3)C2 | 48 | 190 | -2.1 | -7 | i | 0.98 | 89
Clc1ccc2nc(CSc3ncn[nH]3)cn2c1 | / | / | / | 1 | i | 0.8 | 102
CC(C)C(OC(=O)c1cccs1)C(=O)NC1CCCCC1 (stereo not given) | 5 | 127 | -0.9 | -1 | i | 1.1 | 101
Cc1ccc(NC(=O)c2cc(N3C(=O)C=CC3=O)ccc2Cl)cc1C | -27 | 14 | 2.6 | -1 | i | 0.98 | 88
COc1ccc(S(=O)(=O)Nc2cccc(NC(C)=O)c2)cc1 | -40 | 62 | -1.3 | -11 | i | 0.84 | 103
O=C(NC(Cc1ccccc1)C(=O)O)/C(=C/c1ccc(F)cc1)NC(=O)c1ccccc1 (stereo not given) | / | / | 1.8 | -8 | i | 1 | 102
CN(C)/C=C1\Oc2ccc3ccccc3c2C1=O | -50 | 99 | / | -4 | / | / | 110
COc1ccccc1CNC(=O)C(NS(=O)(=O)c1cccc2nsnc12)C(C)C (stereo not given) | / | / | / | / | i | 1 | 102
Further records:
SMILES | INS promoter inh | INS promoter inh cell count | GALR2 ag | PKD1 kinase inh | HSV replic up | HSV replic up primary fold | RGS16-Gao
Cc1ccc(CN2CCSc3sccc3C2=O)cc1 | / | / | / | -11 | i | 0.97 | 99
CCN(c1ccccc1)S(=O)(=O)c1cc(NC(=O)CSc2n[nH]c(=O)[nH]c2=O)ccc1Cl | / | / | / | / | i | 0.97 | 108
O=C(c1cc(-c2ccccc2)nc2ccccc12)N1N=C(C(F)F)CC1(O)C(F)F (stereo not given) | -3 | 96 | -1.1 | 4 | i | 0.91 | 87
Cn1cnnc1SC1c2cccc3cccc(c23)C1NS(=O)(=O)c1ccc(Cl)cc1 (stereo not given) | -19 | 135 | -0.7 | -8 | i | 0.81 | 103
O=C(N1CCCCCC1)n1c(Cc2ccccc2)nc2ccccc21 | 9 | 127 | 2.8 | -4 | i | 0.67 | 110
Cc1nnc(C)n1N | / | / | / | 0 | i | 1 | 97
CC1CCCN(CCCOc2ccc(Br)cc2Cl)C1 (stereo not given) | / | / | / | 2 | i | 0.8 | 104
O=C(Cn1cc2c(n1)CCCC2)NCc1ccccn1 | / | / | -1.3 | 1 | i | 0.93 | 141
CCCC(=O)Nc1cccc(NC(=O)c2ccc3c(c2)OCO3)c1 | 30 | 128 | -1.2 | -15 | i | 0.98 | 98
O=C(Cn1cc(/C=N/O)c2ccccc21)N1CCOCC1 | / | / | -2.4 | 9 | i | 0.89 | 103
CCOCCCNc1nc2c([nH]1)c(=O)n(C)c(=O)n2C | -25 | 60 | 1.6 | -7 | i | 0.94 | 99
O=C(Cn1nnc(-c2ccc(F)cc2)n1)OCC(=O)c1ccccc1 | / | / | / | 3 | i | 0.96 | 97
CCCNC(=O)CS(=O)Cc1nc(-c2ccccc2C)oc1C (stereo not given) | / | / | -0.3 | -5 | i | 1.1 | 103
CCSc1nc2c(c(=O)[nH]1)C(c1cccnc1)C(C(=O)OC)=C(C)N2 (stereo not given) | / | / | -0.9 | -8 | i | 0.98 | 107
CCOC(=O)c1c(-c2ccccc2)csc1NC(=O)CSc1nncs1 | 0 | 87 | -0.6 | -3 | i | 0.88 | 47
CC(=O)Nc1ccc(C(=O)NNC(=O)Cc2ccccc2)cc1 | 7 | 101 | / | -6 | i | 0.95 | 110
Cc1cc([N+](=O)[O-])nn1CCCC(=O)Nc1cccc(Cl)c1Cl | -55 | 101 | / | -6 | i | 0.89 | 81
O=C(O)COc1ccccc1/C=N/NC(=O)c1cccc(S(=O)(=O)N2CCOCC2)c1 | / | / | / | 3 | i | 1 | 101
O=C(Cc1cccs1)N(Cc1ccco1)C1(C(=O)NC2CCCCC2)CCCCC1 | -23 | 142 | -2.2 | 3 | i | 0.95 | 92
Cc1ccc(S(=O)(=O)n2nc(C)cc2N)cc1 | / | / | / | 0 | i | 1 | 86
Cc1ccc(C(=O)N/C(=C\c2cccc([N+](=O)[O-])c2)C(=O)NCc2ccncc2)cc1 | 29 | 70 | -1.8 | -5 | i | 0.93 | 99
Cc1cnc(NC(=O)c2ccccn2)s1 | / | / | / | / | i | 1.1 | 90
O=C(/C=C/c1ccc(Cl)cc1Cl)c1cccnc1 | 9 | 91 | -0.6 | -8 | i | 1.1 | 106
O=C(OCc1nc2ccccc2c(=O)[nH]1)c1cccs1 | / | / | -2.1 | -3 | i | 1 | 100
O=C(NNC(=O)c1cccs1)c1ccc(S(=O)(=O)N2CCCCC2)cc1 | -15 | 68 | -1.2 | 1 | / | / | 96
N[C@@H](Cc1ccccc1)c1nnc(SCc2ccccc2Cl)o1 | 52 | 130 | -1.2 | -4 | i | 0.78 | 108

Shown comma-delimited: part of the list above.
SMILES,INS promoter inh,INS promoter inh cell count,GALR2 ag,PKD1 kinase inh,HSV replic up,HSV replic up primary fold,RGS16-Gao
CC1CCCN(CCCOc2ccc(Br)cc2Cl)C1 (stereo not given),/,/,/,2,i,0.8,104
O=C(Cn1cc2c(n1)CCCC2)NCc1ccccn1,/,/,-1.3,1,i,0.93,141
CCCC(=O)Nc1cccc(NC(=O)c2ccc3c(c2)OCO3)c1,30,128,-1.2,-15,i,0.98,98
O=C(Cn1cc(/C=N/O)c2ccccc21)N1CCOCC1,/,/,-2.4,9,i,0.89,103
CCOCCCNc1nc2c([nH]1)c(=O)n(C)c(=O)n2C,-25,60,1.6,-7,i,0.94,99
O=C(Cn1nnc(-c2ccc(F)cc2)n1)OCC(=O)c1ccccc1,/,/,/,3,i,0.96,97
CCCNC(=O)CS(=O)Cc1nc(-c2ccccc2C)oc1C (stereo not given),/,/,-0.3,-5,i,1.1,103
CCSc1nc2c(c(=O)[nH]1)C(c1cccnc1)C(C(=O)OC)=C(C)N2 (stereo not given),/,/,-0.9,-8,i,0.98,107
CCOC(=O)c1c(-c2ccccc2)csc1NC(=O)CSc1nncs1,0,87,-0.6,-3,i,0.88,47
CC(=O)Nc1ccc(C(=O)NNC(=O)Cc2ccccc2)cc1,7,101,/,-6,i,0.95,110
